Sa ugtP lethal – kills S. aureus RN4220 lacking UgtP; 330,000 compounds, 0.54% hits; growth inhibition, % (test concentration not listed); S. aureus RN4220 ugtP deletion, OD600 growth, 16 h; some inactives read as strong as hits; AID 1259309;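 active means z-score under -3 and OD600 up to 0.15 on both plates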;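 further: plate controls were untreated wells for no effect and antibiotic for full effect; wells of about 80 µL received 100 nL stock; the first replicate is given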
Sa RN4220 lethal – kills Staphylococcus aureus RN4220. 330,000 compounds, 0.33% hits. S. aureus RN4220 growth, OD600, 16 h. inhibition, % (no concentration beside the values);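 active means z-score of -3 or lower and OD600 up to 0.18 on both plates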;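 further: plate controls were untreated cells for no effect and reference antibiotic for full effect; stock transfer was 100 nL into about 80 µL; one replicate is shown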
Autofluor counter – compound fluorescence in toxin protease inhibitor counterscreen; compound autofluorescence counterscreen, microsphere flow cytometry; stronger effect = higher value; fluorescence intensity (test concentration not listed); 360,000 compounds, 3.1% hits;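 active means at least 3 SD above the mean of all compounds, about 16000 in these data; inconclusive means too few beads counted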;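 further: 100 nL of 1 mM stock went into each well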
BJeLR lethal – BJeLR cell viability loss. BJeLR (HRASV12) viability, CellTiter-Glo ATP luminescence, 48 h; reference of the scale not given here. inhibition, % (concentration not given with the values). 300,000 compounds, 0.17% hits. AID 1554;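 active means replicate mean above 50%; inconclusive means above 50% but judged a plate artefact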;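 further: 50 nL library stock added to about 25 µL; numbers are from one replicate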
Mtb hypoxia rep – Mtb hypoxia fluorescent reporter inhibition; M. tuberculosis hypoxia-regulated fluorescent reporter, fluorescence; fluorescence inhibition, % (test concentration not listed); 300,000 compounds, 0.1% hits; AID 1159583;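 active means 35 to 45% if threefold the growth effect, above 45% if 1.5-fold the growth effect; inactive means the rest, general growth blockers included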;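 further: wells of about 50 µL received 100 nL stock; 0% = vehicle wells and 100% = reference inhibitor wells; whole bacteria with a GFP reporter of the hypoxia response; strong numbers were not always called active; many hits fall short of the cut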
PrP 5UTR inh – inhibition of PrP 5' UTR reporter expression; cell-based PrP 5' UTR mRNA reporter, plate reader; inhibition, % (concentration not given with the values); 340,000 compounds, 0.35% hits; AID 488862;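 active means every replicate at 50% or more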;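 further: 0 = median of the neutral control wells; tested in H4 reporter cells; numbers are from one replicate; inactives centre near -14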
Mtb hypoxia rep growth – second read-out of Mtb hypoxia rep, no call of its own (marks repeat the call); growth inhibition, %; measured here: M. tuberculosis growth (absorbance);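 0% = vehicle and 100% = reference antibiotic; read after six days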
* marks the source's active call; other numbers are inactive results; ? = inconclusive; . = not tested or not shown.

1) CCOC(=O)c1oc2ccccc2c1COC(=O)CNC(=O)c1cc(OC)c(OC)c(OC)c1
2) CCN(CC)CCNC(=O)c1ccc(NC(=O)c2cccc(S(=O)(=O)N(C)C3CCCCC3)c2)cc1
3) O=C(ONC1=NCCCCC1)c1ccc([N+](=O)[O-])cc1
4) NNC(=O)c1ccc(COCC(F)(F)F)cc1
5) C=CCNC(=O)CN(CCc1ccccc1)S(=O)(=O)c1ccccc1
6) O=C(c1ccco1)N(Cc1ccccc1)Cc1ccccn1
7) Cn1c(SCc2c(F)cccc2Cl)nc2ccccc2c1=O
8) Cc1nc2cc(C(=O)N3CCC4(CC3)OCCO4)ccc2n1-c1ccc(Br)cc1

Compound	1	2	3	4	5	6	7	8
Sa ugtP lethal	13.3	4.3	9.4	5.9	6.0	4.3	2.1	3.4
Sa RN4220 lethal	3.6	2.6	6.7	1.6	2.4	3.7	-0.8	-3.9
Autofluor counter	4981	3718	2034	4533	3732	4229	6492	5240
BJeLR lethal	-0.1	.	-1.4	2.6	0.8	6.9	.	-3.8
Mtb hypoxia rep	1.5	7.4	-1.0	9.8	15.4	14.4	8.2	.
Mtb hypoxia rep growth	-2.0	10.2	-0.5	10.9	5.1	8.4	1.0	.
PrP 5UTR inh	-23.7	-23.4	-6.7	-3.5	-48.8	-30.4	-25.7	-24.5

9) CC(=O)Nc1ccc(S(=O)(=O)Nc2nc3ccccc3nc2N2CCc3ccccc3C2)cc1
10) CCOC(=O)c1c(C)[nH]c(NC(=O)Nc2ccc(NC(C)=O)cc2)c1C
11) O=C(Nc1ccc(Cl)c([N+](=O)[O-])c1)C(NCCCO)c1ccccc1 (configuration not stated)
12) C=CCOc1ccc(/C(O)=C2\C(=O)C(=O)N(CCCOC)C2c2ccc(O)c(OC)c2)cc1 (configuration not stated)
13) N#CCCn1nnc(-c2ccccc2F)n1
14) CC(Sc1nc(-c2ccccc2)cc(C(F)(F)F)n1)C(=O)N1CCC(C(N)=O)CC1 (configuration not stated)
15) Cc1nn(CC(=O)NC2CCC(C)CC2)c(C)c1[N+](=O)[O-] (configuration not stated)
16) O=C(CNC(=O)c1cccc(Br)c1)N/N=C/c1cccs1

Compound	9	10	11	12	13	14	15	16
Sa ugtP lethal	-23.9	10.8	-3.2	.	-1.4	4.9	2.0	.
Sa RN4220 lethal	10.6	2.8	5.8	.	2.4	-0.1	2.1	.
Autofluor counter	2885	3979	7616	2828	3855	10027	?	3316
BJeLR lethal	-8.8	7.2	-3.9	-8.5	-8.1	-5.6	.	4.1
Mtb hypoxia rep	3.6	5.6	4.8	.	5.6	16.9	3.1	.
Mtb hypoxia rep growth	10.1	0.8	4.0	.	8.1	2.4	9.0	.
PrP 5UTR inh	-16.1	-22.2	-17.9	-24.2	-7.8	-3.1	-11.5	-14.0

17) CCOC(=O)C1=C(O)C(=O)N(C2CCCCC2)C1
18) COc1ccc(CNC(=O)C[C@H]2C(=O)N(CCc3ccccc3)C[C@@H]2Cc2ccccc2)cc1
19) O=c1[nH]c(-c2ccccc2)cnc1-c1ccccc1
20) Cc1cc(C)n2nc(C(=O)OCC(=O)Nc3ccc(C)c(S(=O)(=O)N4CCOCC4)c3)nc2n1
21) CC(C)Oc1c(Br)cc(Br)cc1C=NNC(N)=S
22) CCc1nn(CC(=O)N2CCC3(CC2)OCCO3)c(=O)c2cc3ccccc3n12
23) CC1CC(NC(=O)c2cnc3n(c2=O)CCS3)CC(C)(C)C1 (configuration not stated)
24) CC(NC(=O)Cc1ccc(F)cc1)c1ccc(F)cc1 (configuration not stated)

Compound	17	18	19	20	21	22	23	24
Sa ugtP lethal	-3.1	.	1.5	-2.2	-7.7	-8.4	15.6	-0.8
Sa RN4220 lethal	28.6	.	1.8	0.1	0.1	-4.7	19.0	3.6
Autofluor counter	6136	2836	6213	3364	.	5755	5810	2605
BJeLR lethal	-6.6	-2.5	5.4	.	.	-4.2	14.9	4.0
Mtb hypoxia rep	-8.1	.	16.7	2.7	3.2	-8.4	-3.8	6.2
Mtb hypoxia rep growth	4.0	.	9.0	3.4	-0.8	5.2	-4.2	17.2
PrP 5UTR inh	-21.3	-14.0	.	-7.8	.	-5.3	-11.2	-35.1

25) CCOc1ccc(CCNC(=O)COC(=O)c2cccc(S(=O)(=O)N3CCCC3)c2)cc1OCC
26) CCCS(=O)(=O)N1CCCC(C(=O)NCCN2CCCCC2C)C1 (configuration not stated)
27) Cc1cccc(N2CCN(S(=O)(=O)c3ccc4c(c3)CCCN4C(=O)C3CCC3)CC2C)c1 (configuration not stated)
28) COc1ccccc1N1C(=NC(=O)COc2ccccc2)SC2CS(=O)(=O)CC21 (configuration not stated)
29) CCOC(=O)N1CCN(C(=O)c2nn(-c3ccc(C)cc3)c(=O)c3c2c2ccccc2n3C)CC1
30) Cc1ccccc1CN1CCN(C(=O)c2cccc3ccccc23)CC1
31) COc1cc(OC)cc(C(=O)Nc2nc(CC(=O)NC(C)c3ccccc3)cs2)c1 (configuration not stated)
32) O=C(COc1ccc2ccccc2c1)N1CCN(c2ccccc2)CC1

Compound	25	26	27	28	29	30	31	32
Sa ugtP lethal	7.7	3.5	3.2	0.6	3.8	8.2	17.6	4.1
Sa RN4220 lethal	3.1	7.7	1.7	3.5	5.0	2.4	-3.0	-0.2
Autofluor counter	.	4306	.	5529	4574	3523	6340	6150
BJeLR lethal	-1.3	-8.5	-3.4	5.1	8.8	1.2	-16.6	-3.8
Mtb hypoxia rep	4.3	12.8	1.5	2.7	5.7	8.2	10.1	11.0
Mtb hypoxia rep growth	6.9	9.2	7.1	2.0	0.8	7.0	-3.9	2.4
PrP 5UTR inh	-10.9	-27.3	-27.5	-34.1	-13.5	-12.9	0.3	-8.5

33) CCOC(=O)CC(=O)CSC1=C(C#N)C(c2ccccc2OC)CC(=O)N1 (configuration not stated)
34) CCn1c(C)nc2cc(C(=O)N3N=C(CCOC)CC3(O)C(F)(F)F)ccc21 (configuration not stated)
35) COc1ccc(OCCSc2n[nH]c(N)n2)cc1
36) NS(=O)(=O)c1cccnc1Nc1cccc(C(F)(F)F)c1
37) O=C(NN=Cc1ccc(Cl)c([N+](=O)[O-])c1)c1ccc2c(c1)OCCO2
38) CC(CC(=O)Nc1ccc(Cl)cc1Cl)=NNC(N)=S
39) NC(=O)[C@H]1CC2(CC(c3cccc(NC(=O)COc4ccc(Cl)cc4)c3)=NO2)CN1C(=O)c1ccc(Cl)cc1 (some centres not stated)
40) Cc1ccc(NC(=O)CN2CCN(Cc3ccccc3)CC2)cc1

Compound	33	34	35	36	37	38	39	40
Sa ugtP lethal	1.2	-0.9	-1.1	-13.9	-1.8	6.7	.	6.1
Sa RN4220 lethal	2.0	5.4	-1.9	1.1	-1.8	4.3	.	0.3
Autofluor counter	5301	.	2766	3953	.	.	2819	5001
BJeLR lethal	0.0	4.8	12.3	7.0	.	.	3.0	5.1
Mtb hypoxia rep	.	0.2	.	.	12.3	.	.	18.0
Mtb hypoxia rep growth	.	2.5	.	.	-4.9	.	.	4.6
PrP 5UTR inh	-2.8	-17.3	-4.5	7.4	.	.	5.9	-15.3

Retrieved one by one from the entries so far (3):
33) CCOC(=O)CC(=O)CSC1=C(C#N)C(c2ccccc2OC)CC(=O)N1 (configuration not stated)
31) COc1cc(OC)cc(C(=O)Nc2nc(CC(=O)NC(C)c3ccccc3)cs2)c1 (configuration not stated)
12) C=CCOc1ccc(/C(O)=C2\C(=O)C(=O)N(CCCOC)C2c2ccc(O)c(OC)c2)cc1 (configuration not stated)

Compound	33	31	12
Sa ugtP lethal	1.2	17.6	.
Sa RN4220 lethal	2.0	-3.0	.
Autofluor counter	5301	6340	2828
BJeLR lethal	0.0	-16.6	-8.5
Mtb hypoxia rep	.	10.1	.
Mtb hypoxia rep growth	.	-3.9	.
PrP 5UTR inh	-2.8	0.3	-24.2

Continued:
41) CCOC(=O)c1sc(NC(=O)c2cc(-c3ccccc3)nc3ccccc23)c(C#N)c1C
42) COC(=O)C1=C(C)N(Cc2ccco2)C(=O)N[C@@H]1c1ccco1
43) COC(=O)c1c(C)oc2ccc(N(C(=O)c3ccncc3)S(=O)(=O)c3ccc(C)cc3)cc12
44) FC(F)(F)c1cnc(Oc2cccc3ccccc23)c(Cl)c1
45) CCOc1ncccc1C(=O)OCC(=O)Nc1ccc(C)c(S(=O)(=O)N(C)C)c1
46) O=C(NC(=S)N1CCCCC1)C12CC3CC(CC(C3)C1)C2
47) Fc1cccc(Nc2c3c(nc4ccccc24)CCC3)c1
48) CCN(C(=O)COC(=O)c1cccnc1Nc1cccc(C(F)(F)F)c1)C1CCS(=O)(=O)C1 (configuration not stated)

Compound	41	42	43	44	45	46	47	48
Sa ugtP lethal	-4.9	.	5.1	42.7	1.7	-3.4	14.1	-9.9
Sa RN4220 lethal	2.9	.	-0.1	-3.9	6.2	1.4	-0.9	0.4
Autofluor counter	4206	4142	3000	2535	4496	4641	3280	2578
BJeLR lethal	24.8	4.9	26.7	5.5	-7.8	-4.0	5.4	-5.2
Mtb hypoxia rep	.	.	1.3	9.8	12.9	0.6	12.0	6.2
Mtb hypoxia rep growth	.	.	0.5	7.9	19.2	0.1	1.8	7.9
PrP 5UTR inh	-23.7	-8.0	-24.6	-3.6	-19.9	-2.0	3.5	-11.7

49) CC(C)Oc1ccc(C(=O)NCc2cccnc2)cc1
50) O=C(CN1CCCC1)Nc1ccc([N+](=O)[O-])cc1
51) O=C(CCn1cccn1)Nc1ccc2c(c1)OCO2
52) COCCOC1CCN(C(=O)C2CCC(=O)N(Cc3cccc(F)c3)C2)CC1 (configuration not stated)
53) CCCCC(=O)Nc1ccc(C(=O)NCc2ccncc2)cc1
54) CCC(=O)Nc1nc(C)cc(SCC(=O)OC)n1
55) C=CCc1ccccc1OCC(O)CN1CCN(CCN2C(=O)c3cccc4cccc(c34)C2=O)CC1 (configuration not stated)
56) CC1(C)CC(=O)c2sc(NS(=O)(=O)c3cc(Cl)ccc3Cl)nc2C1

Compound	49	50	51	52	53	54	55	56
Sa ugtP lethal	6.0	3.2	-8.3	1.4	2.2	2.1	-11.1	1.8
Sa RN4220 lethal	-1.2	-0.9	0.9	0.3	4.1	4.1	3.3	5.2
Autofluor counter	3130	4349	5114	4573	?	2791	9174	3805
BJeLR lethal	-11.5	-0.4	-3.8	1.1	5.7	10.2	23.5	-9.1
Mtb hypoxia rep	19.7	-1.3	5.0	-5.1	13.6	.	-7.3	13.5
Mtb hypoxia rep growth	8.3	4.9	0.6	-3.7	1.4	.	0.6	-0.9
PrP 5UTR inh	-14.6	-28.8	-9.3	-9.9	-1.0	-6.8	-2.2	-7.2

57) O=C(OCC(=O)C12CC3CC(CC(C3)C1)C2)c1cccnc1
58) Cc1ccc(Cn2ccc(NC(=O)c3noc4c3CCCCC4)n2)cc1
59) COc1cc(C2/C(=C(\O)c3ccc4c(c3)CC(C)O4)C(=O)C(=O)N2CCN2CCOCC2)cc(OC)c1OC (configuration not stated)
60) COc1ccc(C(=O)Nc2ccc(N3CCN(C(=O)C(C)C)CC3)cc2)cc1[N+](=O)[O-]
61) O=C(Cc1cccs1)N(c1ccc(F)cc1)C1(C(=O)NC2CCCCC2)CCCC1
62) CC(=NNC(=O)COc1cccc(Cl)c1)c1ccc2c(c1)OCCO2
63) O=C(Nc1c(O)c2ccccc2[nH]c1=O)c1ccco1
64) CCOc1ccccc1N(CC(=O)Nc1ccc2c(c1)OCO2)S(C)(=O)=O
65) COc1ccc2c(C)cc(SCC(=O)c3ccc4c(c3)OCO4)nc2c1
66) Nc1ccc2nc(SCC(=O)Nc3ccc(N4CCOCC4)c(Cl)c3)sc2c1
67) O=C1CC2(CCN(C(=O)c3cccc(Br)c3)CC2)Oc2ccccc21

Compound	57	58	59	60	61	62	63	64	65	66	67
Sa ugtP lethal	2.7	4.9	7.9	4.2	-2.9	-10.4	-1.1	-1.3	0.4	2.7	5.1
Sa RN4220 lethal	4.6	4.2	3.9	2.9	-2.0	5.0	4.3	5.6	2.6	-4.2	0.3
Autofluor counter	4478	11278	4465	1911	2340	.	5230	8714	23435*	2560	?
BJeLR lethal	0.6	11.0	-3.1	2.5	-1.6	.	-7.0	-3.5	-4.9	-4.1	0.1
Mtb hypoxia rep	-1.9	1.3	9.3	-4.8	-8.4	-4.5	0.6	5.4	-8.1	4.3	0.7
Mtb hypoxia rep growth	5.4	2.9	3.4	-2.6	-4.2	-3.3	-1.2	6.8	1.9	1.5	2.4
PrP 5UTR inh	-16.7	-18.9	5.3	-3.9	-34.5	.	-10.0	-18.7	-1.3	-25.3	-15.8
